ALR H2O2 inh: blocks human ALR sulfhydryl oxidase activity. P55789. purified ALR, DTT oxidation, H2O2 HRP-luminol luminescence. inhibition, % (test concentration not listed). 290,000 compounds, 3.8% hits. AID 485317;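 active means mean and each replicate at 75% or more; inconclusive means only one of the two met; inactive means neither met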;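 further: stock transfer was 7.5 nL into about 7.5 µL; 0% = neutral wells and 100% = wells with inactivated enzyme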
Target sequence (P55789 whole entry, looked up): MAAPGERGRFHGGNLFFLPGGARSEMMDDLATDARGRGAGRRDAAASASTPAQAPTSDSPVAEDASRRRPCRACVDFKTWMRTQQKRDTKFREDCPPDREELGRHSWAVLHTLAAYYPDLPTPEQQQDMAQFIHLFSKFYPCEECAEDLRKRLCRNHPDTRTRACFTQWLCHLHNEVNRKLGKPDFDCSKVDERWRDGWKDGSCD
T cruzi repl: blocks replication of Trypanosoma cruzi. 300,000 compounds, 1.4% hits. AID 1885. T. cruzi beta-gal in NIH3T3, luminescence, 90 h. inhibition, % (test concentration not listed);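 active means mean inhibition across valid replicates above about 55%, limit read from the data; inconclusive means mean below that limit but half or more replicates reach it; inactive means mean below it, under half of replicates reach it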;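 further: signal also drops with host cell toxicity which is not excluded here; 0% = plate median of DMSO wells and 100% = zero luminescence signal; higher percent means less beta-gal luminescence so fewer parasites; stock transfer was 50 nL into about 50 µL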
RanGTP-Impb inh: disruptors of Ran-importin-beta complex formation – biochemical, FRET, CFP-Ran, YFP-importin-beta, homogeneous, primary screen; cell-free CFP-Ran/YFP-importin-beta FRET ratio; inhibition, % (concentration not given with the values); 300,000 compounds, 1.1% hits; AID 2216;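 active means most replicates above 15%; inconclusive means exactly half above 15%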;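 further: 0% = DMSO wells and 100% = Ran loaded with GDP instead of GTP; wells of about 40 µL received 100 nL stock; the first replicate is given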
MLL AF4-AF9 inh: blocks AF4 peptide binding to human AF9; inhibition, % at 10 µM; 350,000 compounds, 0.47% hits; P42568; AlphaScreen, biotin-AF4 peptide binding to FLAG-AF9;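 active means every replicate reaching a set inhibition limit, whatever the replicate mean, cut at about 25% in these data; inconclusive means mean inhibition reaches that limit but some replicates miss it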;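 further: 0% = plate neutral control median and 100% = total signal loss; the record names both 10 and 1 µM as test concentration; the first replicate is given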
Target sequence (P42568 whole entry, looked up): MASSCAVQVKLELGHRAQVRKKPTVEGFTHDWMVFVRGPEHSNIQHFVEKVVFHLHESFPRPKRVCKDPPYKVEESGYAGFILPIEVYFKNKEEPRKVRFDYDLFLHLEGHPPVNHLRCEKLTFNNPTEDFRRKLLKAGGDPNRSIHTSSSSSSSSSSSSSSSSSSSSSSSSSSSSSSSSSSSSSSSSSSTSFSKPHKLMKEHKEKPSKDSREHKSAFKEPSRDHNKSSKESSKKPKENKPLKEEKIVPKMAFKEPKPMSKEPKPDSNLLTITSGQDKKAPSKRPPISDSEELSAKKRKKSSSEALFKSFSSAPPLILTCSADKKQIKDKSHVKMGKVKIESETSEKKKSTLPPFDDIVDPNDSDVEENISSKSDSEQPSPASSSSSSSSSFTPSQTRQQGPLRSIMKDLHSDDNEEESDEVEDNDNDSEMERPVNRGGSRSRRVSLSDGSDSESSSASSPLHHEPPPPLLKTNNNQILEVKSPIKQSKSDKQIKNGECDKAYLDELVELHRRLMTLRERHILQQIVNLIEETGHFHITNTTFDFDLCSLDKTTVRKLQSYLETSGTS
Calb FLC: affects C. albicans growth with fluconazole; C. albicans CaCi-2 (fluconazole-resistant clinical isolate) + fluconazole, Alamar Blue growth, 48 h; growth inhibition, % (concentration not given with the values); 300,000 compounds, 0.57% hits; AID 1979;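 active means most replicates above 75%; inconclusive means exactly half above 75%; inactive means most below 75%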;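 further: all wells also contain fluconazole at 8 µg/ml as a sub-toxic cotreatment; 0% = median of DMSO wells and 100% = median of geldanamycin control wells; wells of about 8 µL received 7.5 nL stock; the first replicate is given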
FGF22 binding: shifts melting point of recombinant human FGF22; recombinant FGF22 thermal shift, SYPRO orange fluorescence; percent of sucrose octasulfate shift, DMSO zero; calls only at 9.99 µM; 340,000 compounds, 1.5% hits;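 active means melting point raised past a set limit in the mean and every replicate; inconclusive means no clear call; three in four hits are not shown here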
Target sequence (Q9HCT0 whole entry, looked up): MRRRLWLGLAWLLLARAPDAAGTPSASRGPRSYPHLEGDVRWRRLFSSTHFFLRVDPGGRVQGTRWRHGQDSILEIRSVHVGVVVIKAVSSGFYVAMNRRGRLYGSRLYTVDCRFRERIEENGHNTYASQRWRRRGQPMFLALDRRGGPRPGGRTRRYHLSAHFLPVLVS
rRNA inh HTS: inhibits bacterial ribosomal RNA function over humanized ribosomes; 350,000 compounds, 1.6% hits; GFP signal change (wild-type ribosome), % (concentration not given with the values); E. coli WT GFP vs humanized-ribosome RFP mutants, fluorescence, 24 h; hits give low values; DMSO median 0, no signal -100; AID 720706;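 active means significant combined selectivity score with lowered wild-type GFP, culture density cut under 30%, mutant RFP and density less affected; inactive means any of these conditions unmet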; further: one replicate is shown; some compounds called inactive have numbers as strong as hits
Beta cell apopt: beta cell apoptosis inhibition. 300,000 compounds, 0.8% hits. protection from apoptosis, % (concentration not given with the values). INS-1E cytokine-induced death, ATP luminescence, 48 h; percent of positive-control rescue, neutral wells zero. AID 435005;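 active means all replicates at 75% or more, or half of them and the mean; inconclusive means half reach 75% but not the mean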;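 further: 0% = cytokine-treated negative control wells and 100% = positive control rescue; higher means more ATP so stronger rescue from cytokine killing; wells of about 40 µL received 100 nL stock; the first replicate is given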
rRNA inh HTS OD600: further read-out of rRNA inh HTS, marked with its call; OD600 change, %; measured here: OD600 growth;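 optical density of the mix in the first replicate; 0 = DMSO median and -100 = no signal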
rRNA inh HTS RFP: also measured in rRNA inh HTS; calls as there; RFP signal change, %; measured here: RFP humanized mutant strains;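 first replicate; 0 = DMSO median and -100 = no signal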
* hit, by the source's call; i = inactive; ? = inconclusive; . = not tested or not shown. This is a subset; the hit share may differ from the screen's.

SMILES	ALR H2O2 inh	T cruzi repl	RanGTP-Impb inh	MLL AF4-AF9 inh	Calb FLC	FGF22 binding	rRNA inh HTS	rRNA inh HTS OD600	rRNA inh HTS RFP	Beta cell apopt
Clc1ccc(/C=C/c2nc(Cl)c(-c3ccc(Cl)cc3)c(Cl)n2)cc1	6	3	1.5	-4.6	.	i	4	-7	-6.4	5
CN(C)S(=O)(=O)c1cccc(C(=O)OCC(=O)Nc2sccc2C#N)c1	-1	-4	2.6	.	-2	.	3	-3	-3.1	-6
COc1ccc(NC(=S)N2CCN(S(=O)(=O)c3ccccc3)CC2)cc1OC	-18	-13	0.0	1.4	-28	i	4	-2	0.7	-2
CC[C@]12c3[nH]c4ccccc4c3CCN1C(=O)C(CC(=O)NCc1ccco1)C[C@@H]2C(=O)N1CCN(C(=O)c2ccco2)CC1 (stereo partly drawn)	-3	.	.	0.9	.	i	6	12	-1.3	-9
O=C(CC(C(=O)N1CCc2ccccc21)n1ccnc1)NCc1ccccc1 (stereo not drawn)	0	23	?	5.3	14	i	-6	-18	-7.8	0
CCOc1ccccc1C1NC(=O)NC(C)=C1C(=O)OCc1ccccc1 (stereo not drawn)	-3	-4	0.6	1.5	5	i	-22	-26	-5.1	1
CC(Oc1ccc(C#N)cc1)C(=O)c1ccc(F)c(F)c1 (stereo not drawn)	-18	-9	-1.7	-0.2	-8	i	5	5	-2.8	-6
CCN(C[C@H]1N[C@@](C)(C(=O)OC)[C@H]2C(=O)N(Cc3ccccc3)C(=O)[C@@H]12)C(=O)NC(C)C	.	.	.	0.2	.	i	13	7	0.0	-9
COc1ccc(NS(=O)(=O)c2cc(C(=O)NNC(=O)c3ccncc3)ccc2OC)c(OC)c1	2	.	.	2.2	.	i	6	13	7.8	-4
Clc1ccc(Cn2ncc3c(NCc4cccnc4)ncnc32)cc1	-8	-21	0.1	.	-3	.	.	.	.	10
CCC(=O)Nc1cccc(NC(=O)CSc2nnc(C3CC3)n2C)c1	-13	1	-0.5	.	-6	.	.	.	.	2
NC(=O)C1CCN(C(=O)c2ccc(C(F)(F)F)cc2)CC1	-2	0	-2.0	.	2	.	.	.	.	-3
CCOc1ccc(NC(=O)N2CC(C)OC(C)C2)cc1 (stereo not drawn)	-35	-8	0.1	2.1	-1	i	8	11	-0.6	0
COc1ccc(C(=O)COC(=O)CCN2C(=O)C3C4C=CC(C5CC45)C3C2=O)cc1 (stereo not drawn)	-23	-5	-0.5	-0.7	-8	i	-3	-5	3.4	.
COC(=O)c1ccc(NC(=O)CN2CCN(S(=O)(=O)c3ccc(Br)cc3)CC2)cc1	-11	-2	-1.1	1.8	9	i	-22	-20	5.2	-8
O=C(CCN1CCN(C/C=C/c2ccccc2)CC1)Nc1ccccc1	.	56*	-1.6	.	3	.	.	.	.	-2
Cc1ccc(NCc2nnc(SCC(N)=O)n2CC2CCCO2)c(C)c1 (stereo not drawn)	89*	-1	2.3	.	3	.	.	.	.	-1
c1ccc(C(CN2CCOCC2)c2ccccc2)cc1	-4	1	2.2	.	14	.	.	.	.	-3
COc1ccccc1-c1nnc(SCC(=O)O)n1C	-8	-9	7.9	.	7	.	.	.	.	.
Cc1nc(C)c(C(=O)OCC(=O)Nc2ccccc2SCC#N)s1	.	.	.	-0.1	.	i	4	0	1.1	-6
C[C@@H]1CC[C@@]2(O[C@H](CCO)C[C@H](O)[C@H]2O)O1	-6	-2	4.4	.	-3	i	5	18	-2.0	-3
COc1ccc(C)cc1-n1c(SCC(=O)NC2CC2)nc2ccccc2c1=O	-2	.	.	-2.6	.	i	6	8	-0.6	1
COc1ccccc1-c1nnc(NC(=O)C(C)Sc2nncn2C)s1 (stereo not drawn)	11	-12	-3.9	-2.3	6	i	-10	-4	-4.3	2
CN(CC(=O)NCCC1=CCCCC1)S(=O)(=O)c1ccc2c(c1)c(=O)n(C)c(=O)n2C	-3	.	.	1.8	.	i	1	3	-0.5	-1
Cc1cc(NS(=O)(=O)c2ccc(NC(=O)CNS(=O)(=O)c3ccccc3)cc2)nc(C)n1	-2	.	.	4.7	.	i	5	8	0.3	2
SMILES	ALR H2O2 inh	T cruzi repl	RanGTP-Impb inh	MLL AF4-AF9 inh	Calb FLC	FGF22 binding	rRNA inh HTS	rRNA inh HTS OD600	rRNA inh HTS RFP	Beta cell apopt
CC(Oc1ccccc1)C(=O)Nc1oc(-c2ccco2)c(-c2ccco2)c1C#N (stereo not drawn)	-8	-6	2.4	-0.7	-6	i	-17	-27	10	-3
CCCCNC(=O)CO/N=C(\C)c1cc2ccccc2o1	-2	-16	?	.	-2	.	.	.	.	-1
N/C(CCS(=O)(=O)c1ccc(Cl)cc1)=N\OC(=O)c1ccccc1C(F)(F)F	-2	23	6.1	.	17	i	-34	-46	-2.6	.
Cn1c(=O)[nH]c(=O)c2c1nc(SCCO)n2CC(O)COc1ccccc1 (stereo not drawn)	26	-15	-5.2	-3.4	2	.	10	7	-3.5	0
Cc1cc(OCC(=O)Nc2ccccc2C)no1	-2	.	.	-0.9	.	i	20	17	-0.7	0
CC1CC(C)CN(C(=O)c2ccc3c(=O)n(Cc4ccc5c(c4)OCO5)c(=S)[nH]c3c2)C1 (stereo not drawn)	-6	28	2.6	.	-5	.	.	.	.	0
CCCC(=O)NC(c1ccc2c(c1)OCO2)c1cc(Cl)c2cccnc2c1O (stereo not drawn)	-9	56*	-3.1	.	9	.	.	.	.	85*
O=C(NC1CCCC1)c1cccc2c1C(=O)c1ccc(Cl)cc1S2(=O)=O	0	.	.	0.7	.	i	0	2	6.4	3
Cc1cc(Cn2nc(C(=O)NCc3cccc(C(F)(F)F)c3)cc2-c2ccccc2)on1	.	.	.	-5.4	.	i	-14	-31	16	-5
N#CC1=C(C=Nc2ccccc2O)CCC1	15	-2	-0.3	.	-5	.	.	.	.	-4
O=C(CSc1ncn[nH]1)Nc1ccc2c(c1)CCC2	7	-4	-3.5	.	-15	.	.	.	.	1
CC(=O)c1c(C)[nH]c(C(=O)OCC(=O)N2CCCC2=O)c1C	-4	.	.	?	.	i	1	14	-3.6	-6
Cc1ccc(CNC(=S)Nc2ccc(NS(=O)(=O)c3ccc(C)cc3)cc2)cc1	-2	44	-2.3	-5.4	-2	i	-23	-2	15	2
CCC(Sc1nc(=O)cc(N)n1-c1cccc(C)c1)C(=O)Nc1cc(C)on1 (stereo not drawn)	-1	-25	4.5	.	-25	.	.	.	.	1
CCOC(=O)c1c(S(=O)(=O)Nc2cccc(Cl)c2)c(C)n(C)c1C	-3	7	-0.9	1.3	6	i	-4	-9	-5.0	-7
O=C(NCC1CCCO1)c1ccc(Oc2ccc([N+](=O)[O-])cc2Cl)cc1 (stereo not drawn)	-13	12	1.2	0.2	43	i	0	6	-1.8	7
COc1cc(C#N)ccc1OC(=O)c1cccc(S(=O)(=O)N2CCN(C)CC2)c1	17	-3	5.9	0.4	-8	i	0	1	-1.9	-3
COc1ccccc1C(=O)NCC(=O)N/N=C/c1ccc2c(c1)OCO2	1	-9	-0.1	-0.5	0	i	-1	1	-0.2	4
COc1cc2cc[n+](Cc3ccc([N+](=O)[O-])cc3)cc2cc1OC	-5	-12	8.6	0.8	-1	i	1	12	-2.1	-8
O=C(O)Cc1ccc(NC(=O)Nc2ccc(Br)cc2)cc1	-3	12	2.6	-2.5	3	i	-20	-22	3.0	4
CC1CC(C)CN(CCCNC(=O)CN2C(=O)CSc3ccc(S(=O)(=O)N4CCOCC4)cc32)C1 (stereo not drawn)	-2	-1	4.7	-2.0	3	i	14	7	1.1	-5
O=C(OCC(=O)N1CCCC1)c1ccc(OC(F)(F)F)cc1	2	-12	0.5	-0.9	-12	i	-3	-3	-3.6	1
COc1ccc(-c2noc3c2-c2nc(-c4ccc(Cl)cc4)sc2CC3)cc1	-2	-22	1.5	0.8	2	i	11	10	4.3	-10
CCOc1cc(/C=C(\C#N)C(=O)Nc2cccc(C(=O)O)c2)ccc1OCc1ccccc1Cl	11	-3	78*	1.6	18	i	1	3	1.3	8
CO/N=C/NC(=O)c1c(OC)ccnc1Oc1ccccc1	-3	-17	?	.	9	.	.	.	.	-4
SMILES	ALR H2O2 inh	T cruzi repl	RanGTP-Impb inh	MLL AF4-AF9 inh	Calb FLC	FGF22 binding	rRNA inh HTS	rRNA inh HTS OD600	rRNA inh HTS RFP	Beta cell apopt
COc1cccc(-c2c(C#N)c(N)nc3c2c(C)nn3-c2ccccc2)c1O	-8	13	-0.5	2.0	15	i	-18	-21	-5.3	4
Cc1ccc(OCC(=O)N(C)C2CCCCC2)c([N+](=O)[O-])n1	-1	.	.	-1.2	.	i	2	-8	0.6	3
CCN(C(=O)c1ccc(=O)[nH]c1)c1c(N)n(Cc2ccccc2)c(=O)[nH]c1=O	-2	.	.	-1.3	.	i	23	22	5.6	-2
Cc1ccc2nc(-c3ccc(NC(=O)CSc4nc(N)cc(=O)[nH]4)cc3)sc2c1	45	-3	2.8	0.5	3	i	2	5	2.4	-2
COc1ccccc1/C=C1\SC(=O)N(CCC(=O)N(C)C2CCS(=O)(=O)C2)C1=O (stereo not drawn)	1	-3	?	6.9	3	i	-7	-9	-1.3	-11
CCOc1ccccc1N1CCN(C(=S)Nc2ccc(S(N)(=O)=O)cc2)CC1	?	-16	2.2	.	-3	.	.	.	.	-6
CCc1ccc(CC(=S)N2CCOCC2)cc1	21	-5	1.3	0.3	-1	i	7	3	-2.2	-3
Cn1nnnc1SCc1ccc(CSc2nnnn2C)cc1	-2	-20	3.4	-4.3	-5	i	3	2	0.0	-4
CN1CCN(C(=O)N2CCNC2=O)CC1	-17	1	5.8	.	2	.	.	.	.	-3
CC1=C(C(=O)Nc2ccccc2C)C2(CCCCC2)C(C(N)=O)C(=S)N1 (stereo not drawn)	1	3	1.9	-1.8	-19	.	2	2	8.5	-2
COc1ccccc1CNC(=O)[C@@H](NC(=O)C1CCN(C(=O)[C@@H]2CCCN2C(=O)OC(C)(C)C)CC1)C(C)C	.	4	-1.7	-8.1	-11	i	-2	-5	-4.6	-3
C/C(NCC(C)(C)CN(C)C)=C(/C#N)C(=O)NCc1ccccc1	-3	14	1.0	.	-8	.	.	.	.	-3
CCNC(=O)NC(=O)CSc1nnc(-c2c[nH]c3ccccc23)o1	13	-2	1.6	-1.0	-2	i	-7	-2	-1.4	-3
COc1ccc(OC)c(/C=N\NC(=O)c2ccc(-c3ccccc3)cc2)c1	-7	.	.	-1.2	20	i	3	12	0.1	0
O=S(=O)(c1ccccc1Oc1ccc(Cl)cc1Cl)N1CCCCC1	-6	.	-3.1	0.4	3	i	11	10	0.1	-1
Cc1c(C(=O)Nc2nccs2)oc2ccc(Br)cc12	-4	.	.	-3.0	.	i	-5	3	5.3	19

Screening results deposited in PubChem by Broad Institute.
